Screens: PubChem BioAssay, National Center for Advancing Translational Sciences (NCATS)
StopGo reporter: FMDV 2A StopGo reporter, luciferase signal; human cells with a luciferase reporter of 2A StopGo recoding; control for the full effect not named in the record; 410,000 tested, 1.2% active; Potency, µM (series often up to 57.9 µM), without a hit: at the highest dose signal change, negative = less light; active = well fitted falling curve with a large enough effect; inconclusive = small, poorly fitted or top-dose-only effect; inactive = no such curve, though single readings can be large or run the other way; tested in HEK293T cells; also: % is scaled to controls: 0 for no effect and ±100 for the full control effect; nearly all actives have a fitted effect of over 45% in size; luciferase light after 4 h
MARV entry inh: blocks Marburg virus binding to or entry into cells; Marburg virus pseudotyped entry inhibition, cell reporter; control for the full effect not named in the record; about a third of the inactives were read at about 46 µM; Potency, µM (top dose mostly 37.8 µM), without a hit: at the highest dose activity change, negative = inhibition, usual class: inhibitors; 300,000 tested, 1.8% active; active = well fitted inhibition curve with a large enough effect; inconclusive = small, poorly fitted or top-dose-only effect, or effect the other way; inactive = flat fitted curve, though single readings scatter; tested in HEK293 cells; about a fifth of its hits are not listed in these tables; also: % is scaled to controls: 0 for no effect and ±100 for the full control effect; luciferase read-out
NS1 inh: inhibitors of influenza NS1 protein function | 270,000 tested, 0.4% active | S. cerevisiae slowed by influenza A NS1, growth recovery by OD600 | Potency, µM (series often up to 46.1 µM), inactives show top-dose activity, positive = more growth; active means well fitted rising curve with a large enough effect; inconclusive means small, poorly fitted or top-dose-only effect; inactive means no such curve, though single readings can be large or run the other way; also: nearly all actives have a fitted effect of over 50% in size
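Growth recovery, yeast-based: influenza A NS1 expressed in S. cerevisiae causes slow growth, and suppressors are detected by OD600. The parent strain without NS1 is used as positive control.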
Cruzain inh noDet: cruzain (T. cruzi) inhibition without detergent; 200,000 tested, 2.3% active; P25779; purified cruzain, Z-FR-AMC fluorescence, no detergent; Potency, µM, for the others: max response, negative = inhibition, usual class: inhibitors;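 also: plate controls were enzyme without inhibitor for no effect and buffer without enzyme for full effect; nearly all actives have a fitted effect of over 40% in size; top concentration of the series not given in the record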
Target sequence (P25779 123-467 limits assumed): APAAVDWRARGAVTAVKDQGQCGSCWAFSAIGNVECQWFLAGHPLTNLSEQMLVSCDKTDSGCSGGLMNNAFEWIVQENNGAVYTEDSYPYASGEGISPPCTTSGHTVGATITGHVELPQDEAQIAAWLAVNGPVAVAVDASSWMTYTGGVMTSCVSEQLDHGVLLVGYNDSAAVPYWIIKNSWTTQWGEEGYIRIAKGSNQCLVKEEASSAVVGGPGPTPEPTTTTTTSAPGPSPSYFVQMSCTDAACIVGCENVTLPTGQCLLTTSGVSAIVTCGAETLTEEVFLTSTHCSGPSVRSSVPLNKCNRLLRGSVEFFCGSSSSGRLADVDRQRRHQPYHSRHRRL
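Detergent-free condition (0.00005% Triton X-100) in acetate buffer pH 5.5 with DTT. 1.5 nM enzyme and compound were pre-mixed 15 min, then 2 uM Z-FR-AMC substrate added; reaction progress from fluorescence change between first and third reads (60 s).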
Lassa entry inh: blocks Lassa virus binding to or entry into cells. Lassa virus pseudotype entry inhibition, cell reporter; control for the full effect not named in the record. Potency, µM (highest dose often 37.9 µM), without a hit: top-dose activity change, negative = inhibition, most hits filed as inhibitors. 300,000 tested, 1.2% active. AID 540256; active means well fitted inhibition curve with a large enough effect; inconclusive means small, poorly fitted or top-dose-only effect, or effect the other way; inactive means flat fitted curve, though single readings scatter; tested in HEK293 cells; also: % is scaled to controls: 0 for no effect and ±100 for the full control effect; nearly all actives have a fitted effect of over 50% in size; luciferase read-out
Cruzain Triton: cruzain (T. cruzi) inhibition with detergent; P25779; purified cruzain, Z-FR-AMC fluorescence, 0.01% Triton; Potency, µM, for the others: max response, negative = inhibition, hits mostly inhibitors; 200,000 tested, 0.43% active;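 also: plate controls were neutral wells for no effect and buffer without enzyme for full effect; nearly all actives have a fitted effect of over 40% in size; top concentration of the series not given in the record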
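Detergent-containing arm of a paired screen for aggregation-based inhibition: 0.01% Triton X-100 present. Cruzain at 1.5 nM cleaved 2 uM Z-FR-AMC at pH 5.5 with 5 mM DTT; AMC fluorescence gain over 60 s measured activity.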
RE007 growth inh: less growth of the S. pombe RE007 Vpr strain; Potency, µM (top dose mostly 92.2 µM), for inactives: at the top dose activity change, negative = less growth; S. pombe RE007 Vpr strain, BacTiter-Glo ATP luminescence, 24 h; control for the full effect not named in the record; 360,000 tested, 0.21% active; AID 651644; active = well fitted falling curve with a large enough effect; inconclusive = small, poorly fitted or top-dose-only effect; inactive = no such curve, though single readings can be large or run the other way;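 also: % is scaled to controls: 0 for no effect and ±100 for the full control effect; nearly all actives have a fitted effect of over 50% in size; the assay follows cell death caused by Vpr and the record does not say whether a fall means rescue or toxicity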
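Fission yeast strain RE007, carrying one chromosomally integrated HIV-1 vpr copy, was seeded at OD 0.01 in PMG+AL medium with 23 nL pinned compound. After 24 h at 30 °C and 99% humidity, viability was read by BacTiter-Glo luminescence.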
SARS PLpro yeast: SARS-CoV PLP inhibition in yeast | S. cerevisiae expressing SARS-CoV PLpro, growth rescue; control for the full effect not named in the record | Potency, µM (highest dose often 32.9 µM), for inactives: top-dose activity, positive = growth rescue | 330,000 tested, 0.19% active | AID 485353; active means well fitted rising curve with a large enough effect; inconclusive means small, poorly fitted or top-dose-only effect; inactive means no such curve, though single readings can be large or run the other way; also: 0% is about no effect; nearly all actives have a fitted effect of over 55% in size; growth read by luminescence after 48 h
Numbers without * were called inactive; ? = inconclusive; / = no result given; & = joins results of further samples; [ ] = dose if it differs, or a comment. Unless noted, calls follow the shape of the dose curve; as a rule, active = well fitted curve in the direction sought with a large enough effect; inconclusive = small, poorly fitted or top-dose-only effect, or another doubt; inactive = no such curve, though single readings can be large; an effect the other way counts as inactive or inconclusive. Potency is read from the fitted curve at half-maximal effect.

SMILES	StopGo reporter	MARV entry inh	NS1 inh	Cruzain inh noDet	Lassa entry inh	Cruzain Triton	RE007 growth inh	SARS PLpro yeast
O=C(O)CNC(=O)c1ccccc1F	-20%	0%	-1%	-1%	1%	4.0%	26%	5%
C=C(C)CSc1nnc(-c2ccc(OC)c(OC)c2)n1N	4%	1%	-3%	-1%	2%	3.6%	9%	2%
CC1=C(c2ccc(C)c(C)c2)S(=O)(=O)N=C1N1CCC(C(=O)NCCc2ccc(Cl)cc2)CC1	-7%	4µM*	/	?	/	-11%	/	/
CSc1cccc(NS(=O)(=O)c2cn(C)c(C)n2)c1	-11%	/	/	13%	-14%[46.1 µM]	0.0%	/	/
CCC(CC)c1nnc(NC(=O)Cc2cccs2)s1	0%	?	4%	/	11%[46.1 µM]	/	14%	-1%
O=C(Cn1nc2n(c1=O)-c1ccccc1SC2)N/N=C/c1cccs1	-6%	5%[46.1 µM]	-7%	/	-6%	/	-11%	-1%
COCCOC(=O)c1c(C)oc2ccc(OCC=C(C)C)cc12	/	7%	-3%	12%	20%	-3.3%	-1%	-25%
CC(C)(C)NC(=S)N1CCn2cccc2C1c1cccnc1 (centres undefined)	-6%	?	/	/	8%	/	4%	1%
CCOC(=O)C1(Cc2ccccc2C(F)(F)F)CCN(C(=O)c2cc(C(C)=O)n[nH]2)CC1	13%	-29%[46.1 µM]	4%	/	-4%	/	9%	1%
CCC(C)C(=O)Nc1nc2ccc(S(C)(=O)=O)cc2s1 (centres undefined)	0%	?	3%	/	17%	/	11%	-4%
COc1ccc(S(=O)(=O)N(C)c2ccc(C(=O)NCC3CCCO3)cc2)cc1 (centres undefined)	/	-3%	-13%	11%	-15%	4.1%	-6%	6%
CCOC(=O)c1c(NC(=O)CN2C(=O)NC3(CCC(C)CC3)C2=O)sc(C)c1CC (centres undefined)	-20%	-3%	/	/	10%	/	-7%	/
CCC(C)NC(=O)c1ccc(CSCc2ccccc2Cl)o1 (centres undefined)	-17%	?	-40%	/	?	/	9%	0%
CS(=O)(=O)NCCNc1ncc(C(F)(F)F)cc1Cl	0%	-8%[46.1 µM]	/	/	0%	/	-7%	-3%
Cc1[nH]nc2c1C(c1ccc(F)cc1)C(C#N)=C(N)O2 (centres undefined)	?	-27%	5%	-10%	-9%	-3.0%	2%	-3%
Nc1c(C(O)(C(F)(F)F)C(F)(F)F)ccc2ccccc12	-13%	?	-112%	-8%	3%	-18%	-5%	-12%
CNC1(c2nnnn2-c2ccccc2C)CCOC(C)(C)C1 (centres undefined)	-16%	/	1%	/	/	/	-3%	-1%
Cc1ccc(C(=O)Cn2c3[n+](c4ccccc42)CC(O)CS3)cc1 (centres undefined)	-13%	-1%	4%	/	-3%	/	1%	0%
Cc1c(C(=O)OC2CCC(C)CC2)[nH]c2c1C(=O)CC(c1ccc(F)cc1)C2 (centres undefined)	-3%	4%[46.1 µM]	/	-14%	-22%[46.1 µM]	-0.3%	/	/
CCn1c(=NC(=O)c2ccco2)sc2cccc(F)c21	41%[activator]	/	-13%	4%	/	-15%	-22%	-11%
COc1ccc(N2C(=NC(=O)C3CCCO3)SC3CS(=O)(=O)CC32)cc1 (centres undefined)	1%	23%[46.1 µM]	-8%	/	-5%[46.1 µM]	/	-20%	-2%
CCN(CC)CCCNC(=O)c1cn(C)c2ccc(S(=O)(=O)N(C)C)cc2c1=O	-19%	1%	10%	-10%	/	-5.9%	-4%	0%
Cc1ccc(-c2nnn(CC(=O)N3CCCCC3)n2)cc1	71%[activator]	1%	-9%	/	-8%	/	-8%	0%
O=C(COc1cccc(Br)c1)Nc1ccc(Cl)c(S(=O)(=O)N2CCOCC2)c1	?	?	/	/	-22%[46.1 µM]	/	9%	-1%
Cc1csc(SCC(=O)N(c2ccccc2)C(C)C)n1	?	-15%	/	/	20%	/	10%	5%
(list continues)
SMILES	StopGo reporter	MARV entry inh	NS1 inh	Cruzain inh noDet	Lassa entry inh	Cruzain Triton	RE007 growth inh	SARS PLpro yeast
OCCN1CCN(C(c2cccs2)c2ccc3cccnc3c2O)CC1 (centres undefined)	/	0%	-148%	?	/	1.1%	/	-33%
Cc1c(Cl)c(C(=O)NNC(=S)NCc2ccco2)nn1C	18%	-10%	6%	-10%	-20%	-1.9%	1%	4%
Cc1[nH]c(C)c(S(=O)(=O)NCc2ccc(Cl)cc2)c1C(=O)N1CCCC1	45%[activator]	?	8%	/	12%[46.1 µM]	/	11%	33%
O=C(c1ccco1)N1CCN(c2ncnc3scc(-c4ccc(F)cc4)c23)CC1	-27%	?	0%	9%	?	-9.9%	4%	10%
COc1ccc(NC(=O)CSc2nc(C)cc(C)n2)cc1	0%	8%	7%	1%	5%	1.5%	20%	-1%
Cc1ccc(CN(Cc2ccccc2)C(=S)NCC(=O)NCc2cccnc2)o1	32%[activator]	3%[46.1 µM]	/	/	?	/	4%	5%
COc1cc(CCC(=O)Nc2cccc(C(F)(F)F)c2)cc(OC)c1OC	0%	/	13%	12%	9%	-2.5%	2%	-19%
O=C(CCNS(=O)(=O)c1ccc(Cl)cc1)Nc1ccncc1	14%	11%[46.1 µM]	-2%	/	4%	/	12%	-2%
C/C(=N/NC(=O)CNC(=O)c1ccccn1)c1ccccc1	29%	3%	3%	2%	14%	2.8%	-1%	4%
O=C(O)CCC(NS(=O)(=O)c1ccc(-c2ccccc2)cc1)C(=O)O (centres undefined)	22%	-1%	5%	-7%	5%	0.8%	0%	1%
CCOC(=O)N1CCC2(CC1)C(C#N)=C(N)Oc1c2c(C)nn1-c1cccc(Cl)c1	-3%	10%&0%	6%	19%	0%	-13%	-3%	-7%
Cc1cc(SCC(=O)NCC2CCCO2)nc2ccccc12 (centres undefined)	-10%	/	0%	/	/	/	18%	2%
CN(C)CCCN(C(=O)c1ccc2c(c1)OCCO2)c1nc2cc3c(cc2s1)OCO3	-6%	?	-9%	/	29%	/	-1%	-4%
COc1ccc(Br)cc1CN(C)C(=O)c1ccccc1OCc1c(C)noc1C	?	-15%	/	/	?	/	-9%	1%
COCc1cccc(C(=O)NC(c2ccccc2)c2ccccc2)c1	-12%	-9%[46.1 µM]	3%	/	-3%	/	2%	-1%
O=C(CSc1ccc(Cl)cc1)NC1=NN(c2ccccc2)C(=O)C1	-19%	?	11µM*	/	?	/	-13%	-1%
O=C(NCc1cccnc1)c1cccc(S(=O)(=O)N2CCCC2)c1	21%	17%[46.1 µM]	?	/	6%	/	-16%	3%
Cc1cccc(C(=O)N[C@H](C(=O)OCc2cc(=O)n3c(n2)sc2ccccc23)C(C)C)c1	-11%	?	-10%	-14%	-6%	-10%	4%	8%
COc1ccc(CCNc2nc3c(-c4cccc(C(F)(F)F)c4)nnn3c3ccccc23)cc1OC	-23%	12%[46.1 µM]	/	-2%	13%[46.1 µM]	-0.1%	/	/
CCOC(=O)N1CCN(S(=O)(=O)c2ccc(OCC(=O)OC)c(C)c2)CC1	-21%	6%	-4%	6%	-11%	1.3%	5%	4%
O=C1NC(=S)SC1=Cc1ccccc1Br	-11%	-16%[46.1 µM]	/	/	11%[46.1 µM]	/	?	/
CCCn1cc(CN2CCC(Cc3ccccc3)(C(=O)OCC)CC2)c(C)n1	?	?	-6%	/	?	/	1%	-1%
CCCCN(CCCC)c1nc(-c2ccncc2)nc2ccccc12	28µM*	/	0%	/	/	/	2%	-1%
COc1cc(NC(=O)c2ccco2)c(C(=O)O)cc1OC	-11%	0%	-3%	-6%	-5%	-2.5%	0%	-10%
CN1CCN(C(=S)NC(=O)/C=C/c2cccs2)CC1	47%[activator]	15%[46.1 µM]	-1%	/	18%	/	-9%	1%
(listing goes on)
SMILES	StopGo reporter	MARV entry inh	NS1 inh	Cruzain inh noDet	Lassa entry inh	Cruzain Triton	RE007 growth inh	SARS PLpro yeast
COc1ccc(CNC(=O)c2cc3oc4ccccc4c3n2C)cc1OC	0%	5µM*	/	?	/	-14%	/	/
Cc1cc(C)nc(NS(=O)(=O)c2ccc(NC(=S)NC(=O)CC(C)C)cc2)n1	110%[activator]	?	-8%	-2%	-24%	-1.2%	2%	?
O=C(O)CC1(CC(=O)Nc2ccccc2C(=O)c2ccccc2)CCCC1	5%	-1%[46.1 µM]	/	/	20%[46.1 µM]	/	10%	0%
COc1cccc(N(CC(=O)NCCSc2ccccn2)S(=O)(=O)c2ccccc2)c1	-20%	?	-4%	/	-4%	/	7%	1%
CN1CCN(S(=O)(=O)c2cccc(C(=O)Nc3ccccc3N3CCCC3)c2)CC1	-2%	-20%	0%	/	-15%	/	-27%	5%
CCCOc1ccc(S(=O)(=O)n2cc(Br)c(=O)[nH]c2=O)cc1	/	7%	-16%	-5%	3%	2.5%	7%	-1%
CC1=C(C(=O)OC(C)(C)C)C(c2cccc3ccccc23)NC(=O)N1 (centres undefined)	?	/	6%	/	/	/	0%	4%
O=S(=O)(NOCc1ccc(Cl)cc1)c1ccc(Cl)cc1	-2%	/	-30%	/	/	/	6%	1%
Cc1ccc(C2(C)NC(=O)N(CC(=O)NC(=O)NC(C)(C)C)C2=O)cc1 (centres undefined)	-18%	-5%[46.1 µM]	-14%	/	2%	/	13%	-2%
O=C(CSc1ncnc2sc3c(c12)CCC3)N1CCOCC1	-17%	3%[46.1 µM]	2%	/	-3%	/	12%	7%
c1ccc2[nH]cnc2c1	-17%	/	/	5%	/	4.5%	8%[18.4 µM]	/
CCN(CC(=O)Nc1ccc2c(c1)OCCO2)c1nc(-c2cccnc2)nc2ccccc12	?	-5%	-17%	26%	-3%	-2.8%	-10%	-3%
O=C(/C=C/c1ccc([N+](=O)[O-])cc1)NCc1cccnc1	-3%	-4%	0%	-2%	11%	-4.4%	-2%	-3%
NC(=O)c1ccc(NC(=O)COC(=O)/C=C/c2cccs2)cc1	-3%	-6%[46.1 µM]	8%	/	-1%	/	13%	-2%
O=C(O)c1cc(-c2cccs2)nc2cc3c(cc12)OCCO3	40%[activator]	-13%	-42%	-19%	1%	-16%	8%	1%
Cc1noc(COc2ccc(OCc3nc(C)no3)cc2)n1	12%	14%[46.1 µM]	-15%	-2%	15%	1.5%	-10%	-1%
C=CCN1CC(O)=C(c2ccccc2)C1=N	/	6%	0%	5%	-3%	7.0%	-8%	-13%
Cc1ccc(-n2ncc3c(NCc4ccco4)ncnc32)c(C)c1	-19%	/	-21%	-8%	/	-1.1%	13%	-12%
